Assay outcomes: PubChem BioAssay, National Center for Advancing Translational Sciences (NCATS)
Menin MLL FP FL = inhibitors of human menin-MLL interaction, wild-type MLL peptide | Fluorescence polarization, fluorescein-MLL peptide displacement from menin | FP activity change, % at 61.4 µM | 290,000 tested, under 10 active; inconclusive = falling polarisation curve, or a change in total fluorescence; inactive = total fluorescence flat and polarisation flat or rising; no compound was filed as active; the % refers to the polarisation; negative = inhibition;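 also: % of control where 0% means no effect; inhibitors lower the polarisation; unlabelled MLL peptide was the positive control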
TRPML1 agonist = agonists of human TRPML1 channel; Q9GZU1; TRPML1-expressing cells, Ca2+ dye fluorescence, FDSS; host cell line not named in the record; reference of the full effect not given here; activation, % (test concentration not listed); hit rate 0.12% among 410,000; in the data active = activation above about 50%; inconclusive = about 30% to 50%; inactive = below about 30%; also: 0% is about no effect; the text of the record puts the active cut at 80%
Target sequence (Q9GZU1 whole entry, looked up): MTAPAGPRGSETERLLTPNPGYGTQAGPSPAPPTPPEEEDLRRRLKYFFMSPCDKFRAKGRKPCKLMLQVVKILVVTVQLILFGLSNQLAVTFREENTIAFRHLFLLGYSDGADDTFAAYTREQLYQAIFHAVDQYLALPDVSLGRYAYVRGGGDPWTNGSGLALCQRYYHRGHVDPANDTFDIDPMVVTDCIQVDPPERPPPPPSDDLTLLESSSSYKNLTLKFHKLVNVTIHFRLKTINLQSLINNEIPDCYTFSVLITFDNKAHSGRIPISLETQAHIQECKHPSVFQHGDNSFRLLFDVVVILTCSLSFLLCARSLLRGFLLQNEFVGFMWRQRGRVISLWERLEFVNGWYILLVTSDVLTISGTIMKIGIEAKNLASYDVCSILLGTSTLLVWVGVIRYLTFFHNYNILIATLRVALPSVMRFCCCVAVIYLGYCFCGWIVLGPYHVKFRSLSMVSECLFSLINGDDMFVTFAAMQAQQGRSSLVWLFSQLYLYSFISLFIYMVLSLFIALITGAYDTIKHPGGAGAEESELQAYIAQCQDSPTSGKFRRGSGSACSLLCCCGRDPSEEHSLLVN
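Tetracycline-induced TRPML1-DL cells are seeded and incubated overnight before loading with a no-wash Ca2+ dye and quencher. Agonist activity is taken from the 110 s fluorescence read following compound pin-transfer on an FDSS, before EC80 54-4 challenge.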
TRPML1 blocker = inhibitors of human TRPML1 channel; Q9GZU1; TRPML1-inducible cells, Ca2+ dye fluorescence, FDSS; active compounds read low; inhibition of EC80 agonist-evoked calcium signal; AID 624415; activity change, negative = inhibition, % (concentration not given with the values); hit rate 0.02% among 390,000; in the data active means activity change below about -50%; inconclusive means about -30% to -50%; inactive means above about -30%;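 also: stimulus is agonist 54-4 at its EC80 concentration; % is scaled to controls: 0 for no effect and ±100 for the full control effect; the text of the record puts the active cut at -80%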
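Calcium fluorescence in TRPML1-DL cells induced overnight with Tet: a 110 s read after compound pin addition, then a 110 s antagonist read after challenge with 54-4 at 4 uM final (EC80).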
gsp agonist = gsp mutant agonism; gsp mutant cells, cAMP HTRF, 30 min; control for the full effect not named in the record; Potency, µM (highest dose often 76.9 µM), for inactives: at the highest dose activation (cAMP increase), most hits filed as activators; hit rate 0.13% among 340,000; active = well fitted activation curve with a large enough effect; inconclusive = small, poorly fitted or top-dose-only effect, or another doubt; inactive = no such curve, though single readings can be large or run the other way; cell line not stated here;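 also: phosphodiesterase inhibitor Ro 20-1724 added with compounds to block cAMP breakdown; potency is read from the fitted curve at half-maximal effect; nearly all actives have a fitted effect of over 60% in size; about a fifth of the inactives were tested at one dose only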
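Cells stably selected in G418 were plated at 2000/well, grown 16-24 hr, then given compounds in DMSO with the PDE inhibitor […] (300 uM solution added) for 30 min at 37C; cAMP was read by HTRF.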
gsp antagonist = antagonizes gsp, the McCune-Albright syndrome mutation | Potency, µM (top dose mostly 76.9 µM), without a hit: top-dose activity change, negative = inhibition, actives largely listed as inhibitors | hit rate 0.4% among 340,000 | AID 624288 | gsp-mutant cells, cAMP HTRF, 30 min; control for the full effect not named in the record; active = falling curve of any shape with a large fitted effect; inconclusive = falling curve, mostly with a smaller effect; inactive = flat or rising curve; cell line not stated here;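 also: intracellular cAMP measured with PDE inhibitor Ro 20-1724 present during compound exposure; potency is read from the fitted curve at half-maximal effect; % is scaled to controls: 0 for no effect and ±100 for the full control effect; nearly all actives have a fitted effect of over 65% in size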
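Cells in G418 medium, seeded 16-24 h, 37C; buffer exchange to DPBS + 1 mM CaCl2, 0.5 mM MgCl2, 0.05% BSA; cpds in DMSO + […] (300 uM stock), 30 min 37C; HTRF cAMP detection.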
ClpP mod = qHTS Assay for Activators of ClpP | purified B. subtilis ClpP, FRET peptide cleavage, 20 min | Potency, µM (titrated, usually from 57.5 µM), without a hit: at the top dose activity change, negative = active | hit rate 1.9% among 340,000 | AID 651965, 2013; active = well fitted falling curve with a large enough effect; inconclusive = small, poorly fitted or top-dose-only effect; inactive = no such curve, though single readings can be large or run the other way; also: potency is read from the fitted curve at half-maximal effect; the source files actives as falling curves though it sought activators and does not explain the sign; nearly all actives have a fitted effect of over 65% in size; many hits overshoot -100%
Target sequence (P80244 whole entry, looked up): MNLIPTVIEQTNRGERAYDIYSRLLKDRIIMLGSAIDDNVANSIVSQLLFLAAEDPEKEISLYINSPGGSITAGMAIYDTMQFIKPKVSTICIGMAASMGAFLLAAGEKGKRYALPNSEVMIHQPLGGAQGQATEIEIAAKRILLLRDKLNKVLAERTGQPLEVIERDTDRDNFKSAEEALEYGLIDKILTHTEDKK
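ClpP 10 microg/mL final, pH 8 Tris/KCl buffer with BSA, glycerol, Tween-20; compound pinned in; FRET-FV substrate; RT 20 min; Ex320/Em430; ΔFRET vs ADEP 5.8 microM, DMSO, no enzyme.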
* = called active by the depositor; ? = inconclusive; . = no result given; [ ] = another dose, or the depositor's remark.

SMILES	Menin MLL FP FL	TRPML1 agonist	TRPML1 blocker	gsp agonist	gsp antagonist	ClpP mod
Cc1ccccc1S(=O)(=O)Oc1cccc2c(O)cccc12	5.7	0.4	-1	24%	7%	1.6%
Cc1nc(COc2ccc(C(=O)Nc3ccccc3N3CCOCC3)cc2)cs1	7.9	0.0	-7	-28%	?	.
CCC1CCCCN1S(=O)(=O)c1ccc(C(=O)Nc2nnc(C3CC3)o2)cc1 (centres undefined)	0.6	1.9	11	7%	-7%	-2.0%
Cc1cccc(N2CCN(S(C)(=O)=O)CC2)c1C	-0.4	1.3	-15	-21%	-1%	-5.2%
O=C(Nc1ccccc1)Nc1ccc(NC(=O)c2ccccc2O)cc1	-1.4	-0.2	-1	10%	9%	-11%
CC(C)(CNC(=O)c1cc([N+](=O)[O-])ccc1N1CCC(Cc2ccccc2)CC1)N1CCOCC1	.	2.1	29	14%	?	0.5%
Cc1ccc2oc(-c3cccc(NC(=S)NC(=O)/C=C/c4ccco4)c3)nc2c1	12	-0.6	-3	?	4%	5.2%
O=C(COc1cccc(Br)c1)NN=C1c2ccccc2-c2ccccc21	-0.1	1.4	22	11%	-2%	-1.5%
O=C(CSc1nc2ccccc2c(=O)[nH]1)Nc1ccc([N+](=O)[O-])cc1	.	-0.4	-12	-2%[15.4 µM]	-21%	0.4%
Cc1ccc(-c2cc(C(=O)N/N=C/c3c(C)nn(C)c3C)c3ccccc3n2)cc1C	4.8	-0.4	0	-22%	1%	5.5%
COc1cc(C(=O)Nc2cnc(NC(=O)C(C)C)cc2C)cc(OC)c1OC	2.1	-0.3	6	-10%	8%	0.0%
COc1ccc(N2CCN(C(=O)CCc3ccc(S(=O)(=O)NC(C)(C)C)cc3)CC2)cc1	0.9	-0.8	-5	?	-14%	-0.4%
CCCn1c(SCC(=O)NC2CCCCC2C)n[nH]c1=O (centres undefined)	2.0	0.8	8	-17%	4%	3.4%
Cn1c(=O)c2c(nc(NCc3ccc4c(c3)OCO4)n2C)n(C)c1=O	2.9	-0.2	31	-1%	6%	-15%
Cc1ccn2c(=O)c(C(=O)NCCN3CCOCC3)c(O)nc2c1	3.3	-0.2	25	49%	13%	-25%
COc1ccc(C2C(C#N)=C(N)Oc3n[nH]c(C)c32)cc1CSc1ccccn1 (centres undefined)	3.0	-0.8	-2	-48%[inhibitor]	-2%	-2.3%
CCCNC(=O)c1onc(CSc2ccc(Cl)cc2)c1C(=O)NCCOC	.	-0.3	-2	-13%	3%	0.9%
CCC(=O)Nc1cc2c3c(c1)CCN3C(=O)CC2	1.3	0.3	5	4%	-1%	-0.8%
CC(C)CCN1CCC[C@]2(N[C@H](c3ccccc3)[C@@H]3C(=O)N(Cc4ccccc4)C(=O)[C@@H]32)C1=O	.	0.8	-1	-36%[inhibitor]	.	2.1%
COc1ccc(NC(=O)c2ccc(C)cc2)c(OC)c1	1.2	-0.7	85	5%[15.4 µM]	13%	-1.1%
Cc1ccc(OCCOc2cccc3ccc(C)nc23)c([N+](=O)[O-])c1	5.7	0.0	10	0%	-25%	.
c1ccc(CNc2nc(-c3cccs3)nc3ccccc23)cc1	9.9	1.4	-29	26%[15.4 µM]	-21%	.
CCOc1ccc(CCNC(=O)C2CCCN(S(=O)(=O)N3CC(C)CC(C)C3)C2)cc1OCC (centres undefined)	-0.6	-1.2	10	?	-3%	-1.2%
CC1CN(C(=O)CCn2c(=O)oc3ccccc32)CC(C)O1 (centres undefined)	1.3	0.3	4	2%	2%	-1.9%
Cc1cccc(N2CCN(C(=O)CS(=O)(=O)c3cccc4nsnc34)CC2C)c1 (centres undefined)	.	1.0	4	.	.	0.8%
Cc1ccccc1N(C)C(=O)C1CCCN(c2ncnc3c2nc2n3CCCCC2)C1 (centres undefined)	.	-1.3	-1	2%	3%	0.2%
C#CCNC(=O)C1=C[C@H](c2ccc(C(F)(F)F)cc2)[C@@H](CCCO)[C@H](OCC)O1	-3.7	-0.6	0	-33%	-7%	-0.7%
CCOC(=O)c1cc(-c2ccccc2)n(-c2cccc(C(=O)Nc3cccc(SC)c3)c2)c1C	.	0.8	1	.	.	?
CC(NC(=O)COc1ccccc1F)C1CC2CCC1C2 (centres undefined)	-5.4	1.1	-1	-3%[15.4 µM]	-7%	.
Cc1ccc(C(=O)Nc2nn(C)c3cccc(F)c23)cc1	31[activator]	-0.7	32	-7%[15.4 µM]	13%	0.0%
COc1nc(NCCc2ccc(OC)c(OC)c2)nc(Nc2ccccc2)n1	-2.8	3.1	4	6%[15.4 µM]	4%	-1.7%
CC(=O)Nc1ccc(N(C(=O)c2ccco2)C(C(=O)NC2CCCC2)c2ccncc2)cc1 (centres undefined)	2.5	-1.2	43	-2%[15.4 µM]	15%	-0.8%
N=c1c2c3c(sc2ncn1Cc1ccccc1)CCCC3	1.7	0.8	14	-23%	7%	0.8%
COc1cc(OC)c(NC(=O)c2cc(CN3CCOCC3)on2)cc1Cl	.	0.2	7	.	.	0.7%
O=C(Nc1cccc(C(=O)Nc2ccc(S(=O)(=O)O)c3cc(S(=O)(=O)O)cc(S(=O)(=O)O)c23)c1)Nc1cccc(C(=O)Nc2ccc(S(=O)(=O)O)c3cc(S(=O)(=O)O)cc(S(=O)(=O)O)c23)c1	?	-0.5	.	.	.	0.2%
O=C(c1cn(Cc2ccccc2)nc1-c1ccccc1)N1CCN(c2ccccn2)CC1	.	-0.8	1	0%	-1%	-27%
CCCC(C(=O)NCCC(C)C)N(Cc1ccccc1Cl)C(=O)c1snc(C(N)=O)c1N (centres undefined)	3.7	-1.5	-6	0%	-17%	-30%
NC(N)=N/N=C/c1ccc(OS(=O)(=O)c2ccccc2)cc1	-1.9	0.3	30	-3%	6%	-2.0%
Cc1ccc(S(=O)(=O)NCC2NCCc3ccccc32)cc1 (centres undefined)	-0.4	-0.9	5	1%[15.4 µM]	11%	.
N#Cc1ncc(-c2ccc3c(c2)OCCOCCOCCOCCOCCO3)nc1C#N	0.7	2.9	1	1%	14%	32µM*
COc1ccc(C(=O)Nc2nc3nc(C)c(Cl)c(=O)n3[nH]2)cc1	.	-0.2	-1	.	.	0.0%
COc1ccc(C(=O)NCCC2=CCCCC2)cc1S(=O)(=O)N1CCOCC1	.	0.3	-9	-20%	1%	-4.5%
CCCCCCCN1C(Nc2ccccc2)=NC[C@@H]1Cc1ccccc1	6.0	-0.1	12	.	13%	0.9%
Cc1nnc(SC(=O)N2c3ccccc3Sc3ccccc32)s1	4.1	0.5	-3	-28%	-3%	-0.3%
ClC1(Cl)CC1Cn1cnc2ccccc21 (centres undefined)	1.5	0.1	30	9%	4%	-0.9%

Six neighbouring entries already listed, quoted:
SMILES	Menin MLL FP FL	TRPML1 agonist	TRPML1 blocker	gsp agonist	gsp antagonist	ClpP mod
CC(=O)Nc1ccc(N(C(=O)c2ccco2)C(C(=O)NC2CCCC2)c2ccncc2)cc1 (centres undefined)	2.5	-1.2	43	-2%[15.4 µM]	15%	-0.8%
N=c1c2c3c(sc2ncn1Cc1ccccc1)CCCC3	1.7	0.8	14	-23%	7%	0.8%
COc1cc(OC)c(NC(=O)c2cc(CN3CCOCC3)on2)cc1Cl	.	0.2	7	.	.	0.7%
O=C(Nc1cccc(C(=O)Nc2ccc(S(=O)(=O)O)c3cc(S(=O)(=O)O)cc(S(=O)(=O)O)c23)c1)Nc1cccc(C(=O)Nc2ccc(S(=O)(=O)O)c3cc(S(=O)(=O)O)cc(S(=O)(=O)O)c23)c1	?	-0.5	.	.	.	0.2%
O=C(c1cn(Cc2ccccc2)nc1-c1ccccc1)N1CCN(c2ccccn2)CC1	.	-0.8	1	0%	-1%	-27%
CCCC(C(=O)NCCC(C)C)N(Cc1ccccc1Cl)C(=O)c1snc(C(N)=O)c1N (centres undefined)	3.7	-1.5	-6	0%	-17%	-30%

(further entries)
SMILES	Menin MLL FP FL	TRPML1 agonist	TRPML1 blocker	gsp agonist	gsp antagonist	ClpP mod
COc1cc(NS(=O)(=O)c2ccc(NC(=S)NC(=O)c3ccc(Br)cc3)cc2)ncn1	.	1.5	19	6%	-2%	5.0%
Cn1ncc(C(=O)N2CCN(c3ccccc3F)CC2)c1C1CCN(C(=O)OC(C)(C)C)CC1	.	0.7	12	.	.	-1.5%
Cc1csc(SCCn2c(Br)nc3c2c(=O)[nH]c(=O)n3C)n1	4.9	1.5	23	9%	4%	0.3%
CCC[C@H]1CC(=O)C=C(c2ccsc2)ON1C(=O)OC(C)(C)C	.	-0.9	2	.	-9%	-5.8%
c1ccc2c(Nc3ccc4c(c3)OCCO4)c3c(nc2c1)CCC3	-1.0	0.4	23	1%	51%[activator]	-0.9%
COc1ccc(C)cc1NC(=O)CN(c1ccccc1)S(=O)(=O)N(C)C	.	0.4	-9	.	.	0.5%
Cc1ccc(SCC(=O)Nc2ccc(N3CCOCC3)cc2)cc1C	.	0.0	-9	-19%	-1%	-1.0%
CCOc1ccccc1NC(=O)NC(CC)c1c(-n2cccc2)sc2c1CCN(C)C2 (centres undefined)	.	1.2	1	.	.	-1.4%
CCOc1ccc(NC(=O)NC(C)c2c(-n3cccc3)sc(C)c2C)cc1 (centres undefined)	.	1.3	-14	.	.	-0.8%
O=c1cc[nH]c2ccc([N+](=O)[O-])cc12	0.5	0.0	18	-3%[15.4 µM]	6%	0.0%
CC1(c2cc([N+](=O)[O-])cc([N+](=O)[O-])c2)CC(C)(C)N(C(=O)c2ccccc2)c2ccccc21 (centres undefined)	-2.6	8.6	-8	3%	-2%	0.3%
CCOC(=O)c1c(NC(=S)N2CCN(C)CC2)sc2c1CCN(C(=O)OCC)C2	-2.0	0.3	-10	14%	?	.
Cc1cc(-c2nnc(CCC(=O)NC(C)c3ccccc3Cl)o2)no1 (centres undefined)	0.9	-0.5	2	-5%[15.4 µM]	-8%	.
COc1ccccc1NC(=O)Cc1noc(CN(C)Cc2cccs2)n1	-0.6	2.2	-10	-6%	2%	0.6%
Cc1ccc2nc(COc3ccccc3NC(=O)c3ccccc3C)cc(=O)n2c1	.	-0.7	4	.	.	-28%
COc1ccccc1N1CCN(C(=O)c2cc(N3C(=O)C4C5CCC(C5)C4C3=O)ccc2Cl)CC1 (centres undefined)	2.0	-0.1	35	0%	-6%	0.8%
Cc1cc(C)n(CC(=O)N/N=C/c2cccs2)n1	.	0.0	-4	6%[15.4 µM]	19%	-0.4%
CN(C)S(=O)(=O)N1CCC(n2nccc2NC(=O)CCc2ccccc2)CC1	.	-0.2	-12	10%[15.4 µM]	-4%	.
Cc1[nH]c(C)c(S(=O)(=O)NCc2ccc(Cl)cc2)c1C(=O)N1CCCC1	-9.6	1.0	-20	-5%	13%	-3.1%
COc1cccc(NC(=O)c2ccc(C(=O)c3ccccc3)o2)c1	-4.4	0.8	15	-22%	?	-0.1%
COc1cccc(NC(=O)CC2NCCNC2=O)c1 (centres undefined)	.	-0.1	-12	.	.	-1.9%
